Bioassay records as filed in PubChem.
HNF4A DNA FP – change in binding of human HNF4 alpha to DNA | P41235 | HNF4a-FITC DNA binding, fluorescence polarization, 1 h | activity change, % at 10 µM | 0.3% of 360,000 active; in the data active means activity change above about 30%, passing the limit was not always enough;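 further: controls were the assay level and a saturating level of protein; the project sought stronger binding though the title names inhibitors; some compounds called inactive have numbers as strong as hits; positive values seem to mean higher polarization but the record does not say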
Target sequence (P41235 whole entry, looked up): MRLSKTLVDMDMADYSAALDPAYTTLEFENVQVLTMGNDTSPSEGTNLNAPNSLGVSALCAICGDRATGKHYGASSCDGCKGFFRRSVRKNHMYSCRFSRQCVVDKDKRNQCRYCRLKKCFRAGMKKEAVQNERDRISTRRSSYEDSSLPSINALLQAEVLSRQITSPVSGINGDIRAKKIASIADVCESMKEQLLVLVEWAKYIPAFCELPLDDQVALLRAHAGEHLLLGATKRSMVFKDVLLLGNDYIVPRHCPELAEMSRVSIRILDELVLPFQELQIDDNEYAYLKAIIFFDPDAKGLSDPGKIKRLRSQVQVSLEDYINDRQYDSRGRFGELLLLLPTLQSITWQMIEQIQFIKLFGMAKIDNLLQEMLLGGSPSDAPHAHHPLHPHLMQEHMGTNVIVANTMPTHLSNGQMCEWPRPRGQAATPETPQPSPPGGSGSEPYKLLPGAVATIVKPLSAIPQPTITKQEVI
Vif TR-FRET – inhibitors of Vif binding to APOBEC3G peptide, primary screen, biochemical, TR-FRET, GST-Vif 1-94, biotin-A3G peptide, dose response retest (AID 1117319); TR-FRET GST-Vif / biotin-A3G peptide binding; higher % means a stronger effect; test concentration not given here; strong numbers were not always called active; inhibition, %; hits with a dose series show IC50 in µM; 0.57% of 260,000 active;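 active means above the screen mean plus three standard deviations and confirmed in dose response; inconclusive means results disagree or hit not tested in dose response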;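 further: Vif residues 1-94 fused to GST binding biotinylated APOBEC3G peptide 110-148; 0% = full assay without inhibitor and 100% = GST in place of GST-Vif; retest series ran down from 100 µM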
B2AR ag – activates human beta-2 adrenergic receptor causing internalization; response, % (test concentration not listed); 0.43% of 340,000 active; Am2.2-beta2AR cells, FAP receptor internalization, flow cytometry; reference of the scale not given here; P07550; AID 504454;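 active means response above a set limit, near 3 SD of response in nonfluorescent compounds, cut at about 42% in these data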;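 further: stock transfer was 100 nL into about 11 µL; a reference agonist was the positive control; negative values mostly stem from fluorescent compounds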
Target sequence (P07550 whole entry, looked up): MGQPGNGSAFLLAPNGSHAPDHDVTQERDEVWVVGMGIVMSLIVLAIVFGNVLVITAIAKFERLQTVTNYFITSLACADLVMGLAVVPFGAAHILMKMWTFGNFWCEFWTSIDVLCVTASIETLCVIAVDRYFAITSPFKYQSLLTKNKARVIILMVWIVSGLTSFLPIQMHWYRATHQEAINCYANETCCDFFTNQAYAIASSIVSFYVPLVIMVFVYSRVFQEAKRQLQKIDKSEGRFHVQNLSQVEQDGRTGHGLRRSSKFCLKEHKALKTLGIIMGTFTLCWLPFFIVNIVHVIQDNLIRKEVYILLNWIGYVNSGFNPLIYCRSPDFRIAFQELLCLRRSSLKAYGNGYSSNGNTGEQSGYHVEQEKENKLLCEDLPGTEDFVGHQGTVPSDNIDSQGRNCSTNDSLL
RanGTP-Impb inh – disruptors of Ran-importin-beta complex formation – biochemical, FRET, CFP-Ran, YFP-importin-beta, homogeneous, primary screen. cell-free CFP-Ran/YFP-importin-beta FRET ratio. inhibition, % (concentration not given with the values). 1.1% of 300,000 active;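 active means most replicates above 15%; inconclusive means exactly half above 15%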;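 further: 0% = DMSO wells and 100% = Ran loaded with GDP instead of GTP; wells of about 40 µL received 100 nL stock; the first replicate is given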
Calb FLC – C. albicans growth modulation with fluconazole | C. albicans CaCi-2 (fluconazole-resistant clinical isolate) + fluconazole, Alamar Blue growth, 48 h | AID 1979 | growth inhibition, % (test concentration not listed) | 0.57% of 300,000 active;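 active means most replicates above 75%; inconclusive means exactly half above 75%; inactive means most below 75%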;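 further: all wells also contain fluconazole at 8 µg/ml as a sub-toxic cotreatment; 0% = median of DMSO wells and 100% = median of geldanamycin control wells; wells of about 8 µL received 7.5 nL stock; the first replicate is given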
ALR H2O2 inh – inhibitors of human sulfhydryl oxidase ALR | inhibition, % (test concentration not listed) | purified ALR, DTT oxidation, H2O2 HRP-luminol luminescence | 3.8% of 290,000 active;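 active means mean and each replicate at 75% or more; inconclusive means only one of the two met; inactive means neither met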;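 further: stock transfer was 7.5 nL into about 7.5 µL; 0% = neutral wells and 100% = wells with inactivated enzyme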
Target sequence (P55789 whole entry, looked up): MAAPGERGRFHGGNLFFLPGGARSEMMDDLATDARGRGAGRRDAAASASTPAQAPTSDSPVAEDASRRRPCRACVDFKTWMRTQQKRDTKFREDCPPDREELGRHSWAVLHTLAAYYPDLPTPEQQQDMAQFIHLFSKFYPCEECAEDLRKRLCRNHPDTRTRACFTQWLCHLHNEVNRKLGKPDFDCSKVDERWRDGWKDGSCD
LANA-H2A inh – blocks KSHV LANA binding to histone H2A/H2B; Q9QR71; cell-free LANA-H2A/H2B peptide, fluorescence polarization; inhibition, % (test concentration not listed); 0.6% of 320,000 active; AID 2629; in the data active means inhibition mostly above about 10%, no sharp cut-off; inactive means mostly below about 6.7%;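 further: stock transfer was 7.5 nL into about 10 µL; 0% = median of vehicle wells and 100% = median of positive control wells; one replicate is shown; the record names a cut of 25% in any replicate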
An asterisk follows results filed as active; ? = inconclusive; · = no result given; & = joins results of further samples. Not a hit list, and some 6.3% of all compounds hit somewhere here.

SMILES	HNF4A DNA FP	Vif TR-FRET	B2AR ag	RanGTP-Impb inh	Calb FLC	ALR H2O2 inh	LANA-H2A inh
CCOC(=O)C1=C(N)Oc2c(oc(CO)cc2=O)C1c1ccc(Cl)cc1 (centres undefined)	-0.5	?	-7	-1.3	8	·	1.0
O=C(Nc1cccnc1)c1cc2c(ccc3ccccc32)o1	2.9	-4%	7	-1.2	9	-9	2.0
CC1CCCCC1NC(=O)C(Cc1ccccc1)NS(=O)(=O)c1cccs1 (centres undefined)	8.5	?	6	1.9	7	-4	2.3
CC(C)CNC(=O)C1C2C=CC(C2)C1C(=O)O (centres undefined)	2.5	-6%	-8	6.4	-2	-18	-3.2
O=[n+]1c2c(n([O-])c3cc(F)c(N4CCCC4)cc31)CCCC2	2.8	?	3	-45	-9	-9	2.5
COC(=O)C(Cc1c[nH]c2ccccc12)NC(=O)c1cccc(S(=O)(=O)N2CCCCC2)c1 (centres undefined)	-1.1	·	21	·	·	2	6.2
CCOc1cc(C(=O)NCc2nnc(SCC(=O)OC)n2C)cc(OCC)c1OCC	-3.5	-1%	-1	-3.9	3	·	-2.4
CCNc1nc(NCC)nc(N(C)n2cnnc2)n1	-2.2	0%	-14	0.8	-3	-3	-0.1
CC(=O)Nc1ccc(NC(=O)C(C)OC(=O)c2cc(S(=O)(=O)N3CCOCC3)ccc2Cl)cc1 (centres undefined)	0.4	4%	5	0.2	4	-6	-3.0
CC(=O)c1cccc(S(=O)(=O)N(CCCO)Cc2cc3ccc(C)cc3[nH]c2=O)c1	1.6	9%	-11	-3.3	-13	-6	-4.6
Cc1ccc(N2CCCn3c2cc(C)c(C#N)c3=O)cc1Cl	1.6	6%	4	?	21	-4	4.4
O=C(COc1ccccc1Cl)NCCNC(=O)c1ccco1	2.0	·	-15	-6.1	-1	-9	4.9
O=S(=O)(/C=C/c1ccccc1)N1CCc2ccccc2C1	-2.4	1%	-24	-1.0	3	-26	-0.8
O=C(Cn1ncc(Cl)c(Cl)c1=O)N1CCOCC1	3.0	·	6	1.6	-5	-16	-4.2
Cc1ccc(NC2CCCN(C(=O)CCC3=NNC(=O)CC3)C2)cc1C (centres undefined)	-3.4	13%	2	2.6	-4	98*	9.3
O=c1[nH]cnc2c1N=C(c1cccc([N+](=O)[O-])c1)CC(c1ccccc1)N2 (centres undefined)	3.1	?	-3	-2.1	31	·	·
COc1ccc(C(=O)n2nc(-c3ccco3)nc2N)cc1OC	2.4	1%	8	-0.5	5	·	·
COc1ccc(NC(=O)c2c(Cl)n(C)c3ccccc23)cc1	-1.6	-3%	-3	7.6	3	·	-3.5
CCOC(=O)/C(N=Nc1sc(C(=O)OC)c(C)c1C(=O)OCC)=C(\O)CCl	0.7	4%	7	-1.1	8	·	1.6
COc1cccc(NC(=S)C(C#N)=C2N(C)c3ccccc3N2C)c1	-0.3	·	-3	-0.1	38	6	0.2
CC(=O)N1C(C(=O)O)Cc2c([nH]c3ccccc23)C1C (centres undefined)	-1.0	·	6	?	18	·	·
CCOc1ccccc1NC(=O)c1cccc(NC(=O)C(C)C)c1	-0.7	2%	-1	-1.5	-9	-5	-2.6
CN1C(=O)C(CCC(=O)O)NC1=S (centres undefined)	-3.1	·	-3	-2.6	3	·	-1.6
COc1ccc(NS(=O)(=O)c2cc(NC(=O)/C=C/c3ccccc3OC)ccc2N2CCCCC2)cc1	8.0	?	9	3.8	7	-7	-1.1
Cc1ccc(-n2cc(CCCCCCCCC(=O)O)nn2)cc1	-1.9	·	9	-2.9	6	-1	1.2
O=C1CC(NNc2ccccc2)C(=O)N1c1ccccc1 (centres undefined)	3.6	13%	-2	-2.0	?	100*	-3.0
COC(=O)c1c(NC(=O)COC(=O)c2ccccc2O)sc2c1CCCCC2	-2.3	17%	-2	-2.5	12	-11	-3.1
CC(C)C(NC(=O)c1ccc(F)cc1)C(=O)N1CCN(c2ccccn2)CC1 (centres undefined)	0.9	·	-4	·	·	-7	4.9
C=CCSc1nc2ccccc2n1Cc1nnc(-c2cccs2)o1	8.9	-1%	13	3.1	-17	0	3.5
CC1=C(C(=O)OC(C)(C)C)C(c2ccc(Br)cc2)NC(=O)N1CCCC(=O)O (centres undefined)	·	·	·	-0.2	-17	·	-5.6

Entries from the list above that have two or more sulfur atoms, in the order listed:
SMILES	HNF4A DNA FP	Vif TR-FRET	B2AR ag	RanGTP-Impb inh	Calb FLC	ALR H2O2 inh	LANA-H2A inh
CC1CCCCC1NC(=O)C(Cc1ccccc1)NS(=O)(=O)c1cccs1 (centres undefined)	8.5	?	6	1.9	7	-4	2.3
C=CCSc1nc2ccccc2n1Cc1nnc(-c2cccs2)o1	8.9	-1%	13	3.1	-17	0	3.5

Remaining list, next part:
SMILES	HNF4A DNA FP	Vif TR-FRET	B2AR ag	RanGTP-Impb inh	Calb FLC	ALR H2O2 inh	LANA-H2A inh
O=c1/c(=C/c2ccc(CNS(=O)(=O)c3ccccc3)o2)sc2n1CCN=2	-7.1	?	-21	8.0	-13	6	1.7
COc1ccc(-c2nnc3n2-c2ccccc2SC3)cc1OC	1.0	-1%	-3	0.6	-6	-2	1.7
COc1ccc(C2=NN(C(C)=O)CC2c2cccc([N+](=O)[O-])c2)cc1 (centres undefined)	0.5	-5%	0	0.4	-1	-1	2.3
O=C(CN1CC[C@@]2(O)CCCC[C@H]2[C@@H]1c1ccc(F)cc1)NCc1ccco1	-5.2	17%	-1	-4.0	-6	-6	2.4
CN(C)S(=O)(=O)c1cccc(C(=O)Nc2ccc(C(=O)Nc3cccc(S(N)(=O)=O)c3)cc2)c1	-0.2	-11%	0	·	·	·	4.3
O=C(CC1CCCC1)Nc1cc(C(F)(F)F)ccc1-n1cncn1	1.8	21%	12	·	·	-2	-3.1
O=C1CC(C2CCCO2)C(=O)N1c1ccc(Cl)c(Cl)c1 (centres undefined)	-0.1	-2%	1	2.4	0	-1	4.6
Cc1cc(N2CCN(c3ccc(F)cc3)CC2)nc(-c2ccccc2)n1	1.2	-2%	5	0.7	14	-5	7.4
COc1ccc(C(=O)N(C)C2CCCc3ccccc32)cc1OC1CCN(C(C)C)CC1 (centres undefined)	-0.7	·	9	2.3	-4	-1	-2.0
Cc1c(NC(C)c2ccccc2O)c(=O)n(-c2ccccc2)n1C (centres undefined)	0.7	-4%	1	5.5	-2	54	-1.4
CCOC(=O)N1CCN(C(=O)Cc2ccc(Cl)cc2)CC1	0.4	-1%	1	2.1	1	96*	9.6
CC(=O)Nc1cccc(NS(=O)(=O)c2c(C)noc2C)c1	2.4	·	-2	·	·	-3	0.1
Cc1ccc(C(=O)CSc2nnc(N)s2)c(C)c1	-1.8	14%	7	3.7	0	-3	-4.1
COCCCN(C(=O)CSCc1c(C)noc1C)c1c(N)n(Cc2ccccc2)c(=O)[nH]c1=O	-1.1	6%	5	0.3	-5	-2	-5.6
Cc1ccc(NC(=O)C2CCCN(S(=O)(=O)c3ccc4[nH]c(=O)ccc4c3)C2)c(C)c1 (centres undefined)	7.6	-9%	0	2.1	8	·	·
O=S(=O)(c1ccc(F)c(F)c1F)N1CCN(C(=S)NC2CC3CCC2C3)CC1 (centres undefined)	0.4	10%	-6	3.5	-1	-2	0.1
Cc1ccc(NC(=O)Cc2noc3ccccc23)nc1	-0.9	·	0	1.8	-15	2	0.5
Cc1cc(/C=C(\C#N)C(=O)NCc2cccs2)c(C)n1-c1ccccc1F	-0.9	-3%	8	3.1	-2	-14	1.6
CC(C)N(Cc1ccccc1)C(=O)CC(=O)N(Cc1ccccc1)C(C)C	0.5	·	3	-1.8	2	1	-0.8
CC(C)C(C(=O)Nc1ccncc1)c1ccc(Cl)cc1 (centres undefined)	2.9	·	8	6.6	16	-31	-8.1
COc1cccc(C2CC(=O)Nc3cc(OC)c(OC)c(OC)c32)c1OC (centres undefined)	-2.5	-10%&4%	4	-3.5	-10	-4	-6.0
O=C(Nc1ccc(Cc2ccncc2)cc1)c1cccc([N+](=O)[O-])c1	-1.3	17%	-3	1.2	-3	-1	0.4
CC1(c2ccccc2)NC(=O)N(CC(=O)Nc2ccc(S(N)(=O)=O)cc2)C1=O (centres undefined)	-4.4	·	9	4.8	4	·	3.9
COc1ccc(CN2CCN(C(=O)c3ccccc3F)CC2)c(OC)c1OC	-2.8	·	6	0.4	3	-4	-0.5
CCN(CC)CCN1C(=O)c2oc3ccc(F)cc3c(=O)c2C1c1ccncc1 (centres undefined)	-0.2	·	-3	7.1	5	4	-0.2
COc1ccc(S(=O)(=O)N2N=C(c3cccc(NS(C)(=O)=O)c3)CC2c2ccco2)cc1 (centres undefined)	3.3	·	9	6.0	3	-9	6.4
C=CCc1ccc2oc(C(=O)OCC)cc(=O)c2c1O	6.5	-6%	4	-2.5	0	-26	-2.5
Cc1noc(C)c1CSCC(=O)OCc1nnc(-c2ccc([N+](=O)[O-])cc2)o1	-0.7	·	4	·	·	-19	1.8
COc1ccc(N2C(=NC(=O)c3ccc(Br)cc3)SC3CS(=O)(=O)CC32)cc1 (centres undefined)	-1.2	-13%	-5	·	·	1	3.2
CCn1c(=O)c(CCC(=O)NCC2CCCO2)c(C)c2c(C)nn(-c3ccccc3)c21 (centres undefined)	1.3	·	10	1.8	-7	-4	5.2
CC(C)(C)NC(=O)NC(=O)COC(=O)c1cc(=O)[nH]c2ccccc12	0.9	2%	1	0.9	-3	-14	2.3
COc1ccc(-c2csc3nc(C)nc(N4CCC(C)CC4)c23)cc1OC	-2.6	-6%	-1	1.7	29	-7	3.8
COc1cccc(COC(=O)CCNC(=O)c2ccc(Cl)cc2)c1OC	3.3	-4%	10	-0.5	4	-5	3.3
O=Cc1c(N2CCSCC2)nc2ccccn2c1=O	1.4	10%	3	-0.6	-5	-9	2.9
Cn1c(=O)[nH]c(=O)c2c1nc(N1CCOCC1)n2CCCSc1ncccn1	2.1	3%	-37	1.7	-4	-1	6.5
CCO[C@@H]1OC(C(N)=O)=C[C@H](c2ccc(C(F)(F)F)cc2)[C@H]1CCCO	4.7	4%	12	24*	4	-15	-7.7
Cc1ccc(NC(=O)CN2C(=O)S/C(=C\c3ccccn3)C2=O)cc1	6.0	31%	3	4.5	2	-7	3.5
CC1CC(C)(C)OC(c2ccc(C(C)C)cc2)O1 (centres undefined)	0.8	0%	-4	·	·	·	·
COC(=O)C1CSC(C(=O)OC)N1C(=O)CN1CC(C)OC(C)C1 (centres undefined)	-1.7	4%	9	3.4	3	-20	-0.8
Cn1c(=O)c2cc3ccc(Cl)cc3nc2n(C)c1=O	-4.5	-9%	4	0.3	-3	-4	-1.7
CN(C(=O)c1ccc(NC(=O)Cc2ccc(NC(=O)C3CCN(C(=O)c4ccccc4)CC3)cc2)cc1)C1CC1	-0.2	·	0	·	·	3	0.5
Cc1nn(C)cc1CNC(=O)Nc1ccc(Br)cc1Cl	-2.4	0%	-5	-1.2	-10	·	1.7
Cc1nc2cc(O)ccc2n1C	5.3	10%	2	-1.5	17	·	-0.9
Cc1onc(-c2ccccc2Cl)c1C(=O)Nc1ccccc1	-1.1	-9%	0	2.5	-2	1	-4.6
COc1cc(C)nc(NS(=O)(=O)c2ccc(C)cc2)n1	3.8	3%	0	-1.9	-7	·	-0.6
COc1cc(C)c(NC(=O)C(=S)N2CCCC2)cc1C	-1.1	25%	-2	-1.2	-5	-5	3.7
O=C(O)CN1C(=O)CNC1=O	-2.5	0%	-5	3.5	-9	-6	2.2

Random excerpt: two entries already listed, in no set order.
SMILES	HNF4A DNA FP	Vif TR-FRET	B2AR ag	RanGTP-Impb inh	Calb FLC	ALR H2O2 inh	LANA-H2A inh
COc1cc(C)nc(NS(=O)(=O)c2ccc(C)cc2)n1	3.8	3%	0	-1.9	-7	·	-0.6
COc1cc(C)c(NC(=O)C(=S)N2CCCC2)cc1C	-1.1	25%	-2	-1.2	-5	-5	3.7
